Assay outcomes as filed in PubChem.
TRPML1 agonist – agonists of human TRPML1 channel; activation, % (no concentration beside the values); Q9GZU1; AID 624414; TRPML1-expressing cells, Ca2+ dye fluorescence, FDSS; host cell line not named in the record; reference of the full effect not given here; 410,000 tested, 0.12% active; in the data active = activation above about 50%; inconclusive = about 30% to 50%; inactive = below about 30%; also: 0% is about no effect; the text of the record puts the active cut at 80%
Target sequence (Q9GZU1 whole entry, looked up): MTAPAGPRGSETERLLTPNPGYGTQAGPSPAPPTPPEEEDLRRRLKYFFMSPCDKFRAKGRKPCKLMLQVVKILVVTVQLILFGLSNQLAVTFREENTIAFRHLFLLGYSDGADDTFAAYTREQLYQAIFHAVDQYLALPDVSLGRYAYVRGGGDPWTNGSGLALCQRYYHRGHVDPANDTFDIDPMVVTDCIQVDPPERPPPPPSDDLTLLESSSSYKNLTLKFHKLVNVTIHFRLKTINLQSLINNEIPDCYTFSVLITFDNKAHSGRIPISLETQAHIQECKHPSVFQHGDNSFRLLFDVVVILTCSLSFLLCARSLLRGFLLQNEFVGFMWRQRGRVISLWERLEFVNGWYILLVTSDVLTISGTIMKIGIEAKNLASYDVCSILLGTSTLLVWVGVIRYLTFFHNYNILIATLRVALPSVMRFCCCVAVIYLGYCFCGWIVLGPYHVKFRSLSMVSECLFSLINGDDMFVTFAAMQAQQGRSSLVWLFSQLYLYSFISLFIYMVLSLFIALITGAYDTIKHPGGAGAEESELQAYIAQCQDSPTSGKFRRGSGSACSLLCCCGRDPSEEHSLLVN
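In this qHTS format, compounds were pin-transferred onto Ca8-dye-loaded TRPML1-DL cells induced with Tet overnight, and intracellular Ca2+ fluorescence was recorded kinetically for 110 s after a 10 s baseline. A subsequent 4uM final 54-4 (EC80) addition followed by a second 110 s read served as the antagonist phase.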
PINK1 expr mod – modulators of PINK1 expression. 410,000 tested, 0.2% active. AID 624263. PINK1 immunofluorescence, high-content cytometry, 24 h. Potency, µM (highest dose often 76.6 µM), inactives show top-dose activation (PINK1 increase), actives largely listed as activators; active = well fitted activation curve with a large enough effect; inconclusive = small, poorly fitted or top-dose-only effect; inactive = flat fitted curve, though single readings scatter; cell line not stated here;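 also: potency is read from the fitted curve at half-maximal effect; % of control where 0% means no effect; nearly all actives have a fitted effect of over 65% in size; a mitochondrial uncoupler was the plate control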
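PINK1 protein level read as immunofluorescence by microplate cytometer in a fixed, stained stable cell line after 24 h exposure to five compound concentrations, with CCCP as control.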
An asterisk follows results filed as active.

Values in the order – PINK1 expr mod | TRPML1 agonist
- COc1cccc(CNC(=O)CSc2nc(=O)[nH]c3c2CCCC3)c1
→ -0.3% | -1.2
- O=C(Cn1nc(-c2ccccc2)nc(Cc2ccccc2)c1=O)Nc1ccc(Cl)cc1
→ 2.0% | 0.8
- NS(=O)(=O)c1ccc(N=Nc2cc3ccccc3c(C(=O)O)c2O)cc1
→ -0.7% | -0.8
- CCOC(=O)c1cc(C)n(CC2CCC(C(=O)Nc3ccc(C)c(F)c3)CC2)c1C (stereo not drawn)
→ 1.5% | -0.2
- CCN(CC)c1ccc(-c2nnc(SCC(=O)NCc3ccco3)n2C)cc1
→ 0.5% | -0.7
- COc1ccccc1CCNC(=O)c1cccn1-c1nnc(N2CCCC2)s1
→ 0.3% | 1.2
- O=C(NCc1ccc(Cl)cc1)c1ccc(Cn2c(=O)c3cccn3c3cccnc32)cc1
→ -0.3% | 1.8
- COc1ccc2c(CNCC(C)c3ccccc3)c(C(=O)O)n(Cc3ccc(F)cc3Cl)c2c1 (stereo not drawn)
→ 0.7% | 0.2
- CCCN1CNc2c(c(=O)[nH]c(=S)n2CCc2ccccc2OC)C1
→ -0.5% | -0.5
- C=Cc1ccc(CSc2nc(-c3ccccc3Cl)nc3c2Cc2c(CO)cnc(C)c2O3)cc1
→ 3.3% | 0.5
- O=C(CN1C(=O)C2(SCC(=O)N2c2cccc(F)c2)c2ccccc21)NCc1ccccc1Cl (stereo not drawn)
→ -4.3% | 3.2
- N#Cc1ccccc1Cn1cnc2nc3c(cc2c1=O)CCCC3
→ 0.0% | -0.7
- COc1cc(CN(C(=O)c2ccc(Cl)cc2)C2CCS(=O)(=O)C2)cc(OC)c1OC (stereo not drawn)
→ -0.6% | 2.0
- COCCNc1nc(NCc2ccccc2OC)c2cnn(C)c2n1
→ 24% | 1.3
- Cn1c(=O)cc(SCC(=O)NCCc2ccc(Cl)cc2)c2cc(Cl)ccc21
→ 0.4% | -0.3
- Cc1ccc(C(=O)NCCc2csc(-c3cccc(F)c3)n2)cc1C
→ 0.3% | 1.3
- CCOC(=O)Cn1c(=O)n(C2CCCCC2)c2nc(-c3ccc(C(C)C)cc3)nc(C(N)=O)c21
→ 0.3% | 2.1
- CCN(Cc1ccccc1)Cc1c(O)ccc2c(=O)c(-c3ccccc3)c(C(F)(F)F)oc12
→ 3.0% | -1.0
- CCOc1ccc(CCNC(=O)Cn2ccc3cc(S(=O)(=O)N4CCCCCC4)ccc32)cc1
→ 1.6% | 0.8
- COc1ccc(OCC(=O)NCc2ccc3c(c2)CCN3C(=O)c2ccc(F)cc2)cc1
→ 1.0% | 2.5
- COc1ccc(-c2nc3ccccc3o2)cc1NC(=O)c1ccc(OCC(C)C)cc1
→ 1.1% | -0.9
- COc1ccc(C)cc1Nc1cc(C)nc(C)n1
→ -1.2% | -0.6
- CCOC(=O)c1c(Nc2ccc(OC)cc2)nnc(-c2ccccc2)c1-c1ccccc1
→ -2.9% | 3.1
- COc1ccc(OCC(=O)NCC(c2ccc(OC)cc2)N2CCOCC2)cc1 (stereo not drawn)
→ 0.2% | 0.8
- Cc1cccc(NC(=O)Cn2c(=O)n(CCC(=O)N3CCc4ccccc4C3)c(=O)c3ccccc32)c1
→ 0.8% | -0.6
- COc1ccccc1NC(=O)n1ncc2c(C)cccc21
→ 0.0% | -0.8
- CCN1c2cc(C)ccc2-n2cccc2C12CCN(C(=O)Nc1cc(OC)c(OC)c(OC)c1)CC2
→ 0.0% | 0.3
- CCCCN(C)CCCNC(=O)Cn1ncc2c3ccccc3n(Cc3ccccc3F)c2c1=O
→ -0.3% | 1.4
- Cc1c(-c2cccc(NC(=O)Cc3ccccc3)c2)nc2ncccn12
→ 3.2% | -1.1
- CCOC(=O)c1c(-c2ccccc2)csc1NC(=O)c1nc(SCC)ncc1Cl
→ 0.9% | 0.2
- O=C(NC1CC(=O)N(c2ccc(Cl)cc2)C1)c1cc2ccccc2o1 (stereo not drawn)
→ 0.7% | -0.1
- Cc1cccc(OCCn2c(SCC(N)=O)nc3ccccc32)c1
→ 1.4% | 0.4
- O=C(CCNS(=O)(=O)c1ccc2c(c1)CCN2C(=O)C1CC1)N1CCN(c2ccccc2F)CC1
→ -5.0% | 0.3
- COC(=O)c1cccc(NC(=O)Nc2cc(C(=O)NCc3cccc(F)c3)ccc2N2CCCC2)c1
→ 0.7% | -0.5
- N#Cc1ccccc1CSc1nnc2ccc3ccccc3n12
→ 1.3% | 0.1
- COc1cccc(NC(=O)Cn2nc(N3CCN(c4ccccc4)CC3)ccc2=O)c1
→ 1.6% | 1.2
- CCC(Sc1nncn2c1cc1occc12)C(=O)Nc1ccc(C)c(Cl)c1 (stereo not drawn)
→ 1.6% | 1.2
- O=C(CSc1nc2c([nH]c3ccccc32)c(=O)n1-c1ccccc1)N1CCCCCC1
→ 0.9% | -0.1
- CCOC(=O)N1CCc2c(sc(NCc3ccc(OCC)cc3)c2C(=O)Nc2ccc(OC)cc2OC)C1
→ 0.1% | 0.7
- Cc1c(C(=O)OC2CCCC2)[nH]c2c1C(=O)CC(c1ccc(C(C)(C)C)cc1)C2 (stereo not drawn)
→ 0.7% | 0.5
- COc1ccccc1CNC(=O)CSc1nc2nc(C)c(Cc3ccccc3Cl)c(C)n2n1
→ 0.0% | -1.0
- CCOC(=O)c1cccc(NC(=O)[C@@H](c2ccccc2)N2Cc3ccccc3C2=O)c1
→ 1.2% | 1.5
- COc1ccc(CCNc2nc(SCc3ccc(F)cc3)nc3ccccc23)cc1OC
→ 2.7% | 2.2
- COc1cc(OC)c(NC(=O)n2ncc3cc(Cl)ccc32)cc1Cl
→ 0.7% | -0.7
- CCN(CC)S(=O)(=O)c1nnc(NC(=O)COc2ccccc2Cl)s1
→ 4.2% | 1.0
- CCc1nn2c(=O)c(S(=O)(=O)Nc3ccc(C)c(C)c3)c(C)nc2s1
→ 1.9% | 0.4
- Cc1cccc(C(=O)NC(=O)Nc2ccc(-n3nc(C(F)(F)F)cc3C(F)(F)F)cc2)c1
→ 2.4% | 0.9
- CC(=O)N1CCCc2cc(S(=O)(=O)N(C)CC(=O)Nc3ccc(F)c(Cl)c3)ccc21
→ -1.8% | 1.1
- COc1cccc(N2CCN(C(=O)CN3C(=O)COc4ccc(S(=O)(=O)N5CCC(C)CC5)cc43)CC2)c1
→ -0.6% | 4.2
- CN(C(=O)CSc1nc2c(c(=O)[nH]1)CCCC2)c1ccccc1
→ 2.5% | 4.7

Later entries:
Values in the order – PINK1 expr mod | TRPML1 agonist
- Cc1cccc2sc(N(CCN(C)C)C(=O)c3ccc4c(c3)OCCO4)nc12
→ -0.2% | 1.4
- COc1ccc(C(=O)N(Cc2cc(OC)c(OC)c(OC)c2)C2CCS(=O)(=O)C2)cc1Cl (stereo not drawn)
→ -0.5% | -0.2
- CC(C)(C)C(=O)NCCc1nc2ccccc2n1CCCCOc1ccccc1
→ -1.5% | 1.9
- COC(=O)c1cc2sccc2n1CC(=O)Nc1ccc(OC)c(OC)c1
→ -1.2% | -0.8
- Cc1ccc2c(c1)-c1c(c(C(=O)N3CCN(c4cc(Cl)ccc4C)CC3)nn1C)CS2
→ -0.6% | 0.9
- O=S(=O)(Nc1cccc2cccnc12)c1cccs1
→ 2.9% | 2.1
- CCC(=O)N1c2ccccc2CC1C(=O)NCCc1cc(OC)c(OC)c(OC)c1 (stereo not drawn)
→ 0.4% | 0.2
- CCOc1ccc(NC(=O)Cn2nnc(C(=O)OC)c2C(=O)OC)cc1
→ -0.8% | -0.2
- CCOc1ccc(S(=O)(=O)Nc2cccc(OC)c2)c2cccnc12
→ 3.0% | 1.5
- COc1ccccc1CNC(=O)Cc1csc2nc(-c3ccccc3)cn12
→ 1.1% | -0.5

Given bar-delimited: part of the list above
Compound | PINK1 expr mod | TRPML1 agonist
CCOc1ccc(NC(=O)Cn2nnc(C(=O)OC)c2C(=O)OC)cc1 | -0.8% | -0.2
Cc1cccc2sc(N(CCN(C)C)C(=O)c3ccc4c(c3)OCCO4)nc12 | -0.2% | 1.4
CCOc1ccc(S(=O)(=O)Nc2cccc(OC)c2)c2cccnc12 | 3.0% | 1.5
Cc1ccc2c(c1)-c1c(c(C(=O)N3CCN(c4cc(Cl)ccc4C)CC3)nn1C)CS2 | -0.6% | 0.9
COC(=O)c1cc2sccc2n1CC(=O)Nc1ccc(OC)c(OC)c1 | -1.2% | -0.8
O=S(=O)(Nc1cccc2cccnc12)c1cccs1 | 2.9% | 2.1
CC(C)(C)C(=O)NCCc1nc2ccccc2n1CCCCOc1ccccc1 | -1.5% | 1.9

(further entries)
Values in the order – PINK1 expr mod | TRPML1 agonist
- O=C(NCCc1ccccc1)c1cnc2sc(N3CCOCC3)nn2c1=O
→ 0.8% | 0.1
- CCc1nn(CC(=O)Nc2cc(C)cc(C)c2)c(=O)c2cc3sccc3n12
→ 3.1% | -0.8
- Cc1ccccc1C(=O)Nc1nnc(S(=O)(=O)N(C)Cc2ccc(Cl)cc2)s1
→ -0.6% | 2.9
- Cc1ccc(-n2ncc3c(Nc4ccc5c(c4)OCCO5)ncnc32)cc1C
→ 6.5% | -0.8
- CCN(CC)c1ccc(NC(=O)C(Cc2ccccc2)NS(=O)(=O)c2ccc(Br)s2)c(C)c1 (stereo not drawn)
→ 2.2% | 0.8
- CCN1c2ccccc2-c2nc(SCC(=O)Nc3cccc(C)c3C)ncc2S1(=O)=O
→ 0.4% | 1.2
- Cc1ccc(CN(C(=O)COc2ccc([N+](=O)[O-])cc2)c2ccccn2)cc1
→ -1.1% | 1.8
- Cc1ccc(S(=O)(=O)c2cn(Cc3cccc(F)c3)c3cc(N4CCCC4)c(F)cc3c2=O)cc1
→ 0.9% | -0.3
- COC(=O)CC1Oc2ccc(C)cc2-n2cc(-c3ccc(F)cc3)nc21 (stereo not drawn)
→ 3.8% | 2.5
- COc1ccc(-n2nc(C(=O)NCCc3cccc(C)c3)c3c4ccccc4n(C)c3c2=O)cc1Cl
→ 1.3% | -0.9
- CC(Sc1cn(CCNC(=O)c2ccccc2F)c2ccccc12)c1ccccc1 (stereo not drawn)
→ 0.2% | 1.1
- Cc1cccc(Cn2c(CNS(=O)(=O)c3ccc(Cl)s3)nc3cccnc32)c1
→ 0.7% | -0.4
- COc1cc(CNCCSc2nnnn2C)ccc1OCc1ccc(Cl)cc1Cl
→ -1.1% | -0.9
- COc1ccc(-c2cc(C(=O)Nc3cccc(C(C)=O)c3)no2)cc1OC
→ 0.0% | -0.4
- CCc1ccc(C(=O)c2cn(CC(=O)Nc3ccc(OC)cc3OC)c3ccc(CC)cc3c2=O)cc1
→ 1.1% | 0.1
- CCOC(=O)Cn1c(=O)n(-c2ccccc2OC)c2nc(-c3ccccc3C)nc(C(N)=O)c21
→ 0.7% | 2.6
- Cc1ccc(S(=O)(=O)N(CC(=O)Nc2ccc(C(C)C)cc2)Cc2ccccc2)cc1
→ 1.0% | 2.8
- CCC(C)NC(=O)CCCn1c(=O)c2cccn2c2ccccc21 (stereo not drawn)
→ 4.0% | 0.4
- COc1cccc(C2C=C(c3ccccc3)Nc3c(C(=O)Nc4ccccc4)cnn32)c1OC (stereo not drawn)
→ -0.3% | -0.2
- Cc1ccc(-c2cc(C(F)(F)F)n3nc(C(=O)Nc4ccc(C#N)cc4)cc3n2)cc1
→ 0.7% | -0.5
- COc1ccc(-c2ccc(=O)n(CC(=O)Nc3cc(OC)ccc3OC)n2)cc1
→ -0.4% | 3.3
- CC(Oc1ccccc1Cl)C(=O)N1CCN(CCc2ccccn2)CC1 (stereo not drawn)
→ 1.0% | -0.7
- CCOc1ccc(CNCc2c(C(=O)O)c(C)n(Cc3cccc(OC)c3)c2C)cc1OC
→ 3.0% | 1.7
- COc1cccc(N2CC(NC(=O)c3ccco3)CC2=O)c1 (stereo not drawn)
→ -0.6% | 0.3
- COc1ccccc1CNC(=O)C(Cc1ccccc1)NS(=O)(=O)c1ccc2c(c1)CCN2C(C)=O (stereo not drawn)
→ 0.7% | -0.3
- Cc1nn(C)c2c1c(-c1ccccc1)cc(=O)n2Cc1ccc(Br)cc1F
→ 3.9% | 2.2
- CCN(c1ccccc1)S(=O)(=O)c1ccc(NC(=O)c2cc(=O)c3ccccc3o2)cc1
→ 1.2% | -0.6
- COc1ccc(CNc2nc3ccccc3c3nc(-c4ccccc4)nn23)cc1
→ 0.9% | 0.1
- CCCNC(=O)C1CCC(Cn2c(=O)c3sccc3n(CC(=O)N(CC)CC)c2=O)CC1 (stereo not drawn)
→ 1.9% | 0.0
- O=C(COc1ccccc1C(=O)Nc1ccccc1)Nc1cccc([N+](=O)[O-])c1
→ 1.6% | 0.0
- COc1cc2c(cc1OC)C(COc1ccc3c(C)cc(=O)oc3c1)N(C(=O)Cc1ccccc1)CC2 (stereo not drawn)
→ 1.9% | -1.3
- O=C(C1COc2ccccc2O1)N(Cc1cccnc1)c1nc2c(F)cccc2s1 (stereo not drawn)
→ -0.1% | -0.4
- O=C(CSc1nnc(-c2ccccc2)c(-c2ccccc2)n1)Nc1ccccc1Cl
→ 0.0% | 2.2
- COc1ccccc1CNC(=O)C(=O)NCC(c1ccc2c(c1)OCO2)N1CCOCC1 (stereo not drawn)
→ -0.5% | 0.7
- Cc1ccc(-c2nc3cc(Cl)ccc3o2)cc1NC(=O)COc1ccc(F)cc1
→ 0.7% | 1.2
- CC(=O)Nc1cccc(NC(=O)CSc2cn(CC(=O)N3CCCC3)c3ccccc23)c1
→ 1.9% | 1.2
- COc1cc(NC(=O)c2ccc(-n3cnc4cccnc43)cc2)cc(OC)c1
→ 1.0% | 0.5
- CC(=O)N1CCc2c(sc3c2c(=O)n(Cc2ccccc2)c(=O)n3Cc2ccccc2F)C1
→ 4.1% | -0.3

This is a subset; rates above refer to the full screens.
